Source: PubChem BioAssay
D2 potentiator – positive allosteric modulators of human D2 dopamine receptor. P14416. DiscoveRx D2 beta-arrestin cells, luminescence, 90 min; 100% = 57 uM dopamine signal. potentiation, % (no concentration beside the values). hit rate 0.23% among 360,000. AID 624464; active = potentiation of 50% or more; inconclusive = 30% to 50%; inactive = 30% or less;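 note: compound concentration not given in the record; tested on top of an EC20 dose of dopamine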
Target sequence (P14416 whole entry, looked up): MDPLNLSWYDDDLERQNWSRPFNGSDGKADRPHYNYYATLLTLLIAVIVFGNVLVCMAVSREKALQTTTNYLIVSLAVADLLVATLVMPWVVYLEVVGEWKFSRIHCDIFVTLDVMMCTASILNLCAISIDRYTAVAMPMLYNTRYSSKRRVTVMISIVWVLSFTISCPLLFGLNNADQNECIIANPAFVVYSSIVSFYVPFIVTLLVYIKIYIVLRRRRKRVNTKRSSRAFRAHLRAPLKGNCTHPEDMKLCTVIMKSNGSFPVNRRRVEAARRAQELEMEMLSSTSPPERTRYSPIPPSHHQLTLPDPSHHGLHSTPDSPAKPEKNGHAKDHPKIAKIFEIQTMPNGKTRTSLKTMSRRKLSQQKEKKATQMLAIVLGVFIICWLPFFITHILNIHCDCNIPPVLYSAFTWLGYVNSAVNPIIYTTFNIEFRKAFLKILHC
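PathHunter beta-arrestin assay in DiscoveRx D2 cells. Compounds were added with an EC20 of dopamine (50 nM final) for 90 min at 37 deg C. Luminescence was read 1 h after detection reagent, with 57 uM dopamine as the EC100 control.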
TRPML1 ag – agonists of human TRPML1 channel; activation, % (concentration not given with the values); AID 624414; TRPML1-expressing cells, Ca2+ dye fluorescence, FDSS; host cell line not named in the record; reference of the full effect not given here; Q9GZU1; hit rate 0.12% among 410,000; in the data active = activation above about 50%; inconclusive = about 30% to 50%; inactive = below about 30%; note: 0% is about no effect; the text of the record puts the active cut at 80%
Target sequence (Q9GZU1 whole entry, looked up): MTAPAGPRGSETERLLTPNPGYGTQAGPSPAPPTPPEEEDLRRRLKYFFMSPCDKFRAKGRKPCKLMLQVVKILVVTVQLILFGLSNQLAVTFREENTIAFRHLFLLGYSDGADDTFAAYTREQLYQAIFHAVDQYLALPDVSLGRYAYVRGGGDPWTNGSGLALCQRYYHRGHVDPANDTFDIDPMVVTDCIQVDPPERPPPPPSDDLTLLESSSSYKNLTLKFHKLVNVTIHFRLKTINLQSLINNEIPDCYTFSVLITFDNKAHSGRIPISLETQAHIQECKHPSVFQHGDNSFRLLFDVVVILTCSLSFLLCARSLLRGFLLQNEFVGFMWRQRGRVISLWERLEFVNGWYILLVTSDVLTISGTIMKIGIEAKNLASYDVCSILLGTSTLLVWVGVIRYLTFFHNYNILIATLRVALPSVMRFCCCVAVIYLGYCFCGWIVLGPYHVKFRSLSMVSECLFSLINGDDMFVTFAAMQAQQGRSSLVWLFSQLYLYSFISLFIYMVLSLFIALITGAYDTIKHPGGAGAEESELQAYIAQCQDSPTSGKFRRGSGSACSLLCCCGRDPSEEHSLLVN
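Tet-induced TRPML1-DL cells, 1,500 per well, cultured overnight, were loaded with a no-wash Ca2+ dye for 45–90 min. Calcium fluorescence was recorded on the FDSS for 110 s after compound addition, before the EC80 agonist (4 uM 54-4) was added.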
PINK1 modulator – PINK1 expression modulation; PINK1 immunofluorescence, high-content cytometry, 24 h; Potency, µM (top dose mostly 76.6 µM), for inactives: at the highest dose activation (PINK1 increase), actives largely listed as activators; hit rate 0.2% among 410,000; AID 624263; active = well fitted activation curve with a large enough effect; inconclusive = small, poorly fitted or top-dose-only effect; inactive = flat fitted curve, though single readings scatter; cell line not stated here;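 note: potency is the fitted concentration of half-maximal effect; % of control where 0% means no effect; nearly all actives have a fitted effect of over 65% in size; a mitochondrial uncoupler was the plate control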
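Fluorescence from anti-PINK1 antibody, together with nuclear and cell stains, was scanned on a laser-scanning cytometer. Before staining, stable-line cells were incubated 24 hours with compounds at 5 concentrations; primary antibody 12 h at 10 degrees C.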
TRPML1 inh – human mucolipin-1 channel inhibition. Q9GZU1. TRPML1-inducible cells, Ca2+ dye fluorescence, FDSS; hits give low values; inhibition of EC80 agonist-evoked calcium signal. activity change, negative = inhibition, % (no concentration beside the values). hit rate 0.02% among 390,000. AID 624415; in the data active means activity change below about -50%; inconclusive means about -30% to -50%; inactive means above about -30%;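 note: stimulus is agonist 54-4 at its EC80 concentration; % is set by controls: 0 for no effect and ±100 for the full control effect; compound concentration not given in the record; the text of the record puts the active cut at -80%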
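Calcium fluorescence in TRPML1-DL cells induced overnight with Tet: a 110 s read after compound pin addition, then a 110 s antagonist read after challenge with 54-4 at 4 uM final (EC80).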
D2 ag – agonists of human D2 dopamine receptor (beta-arrestin). P14416. DiscoveRx PathHunter D2 beta-arrestin, luminescence, 90 min; 100% = 57 uM dopamine signal. activation, % (test concentration not listed). hit rate 0.084% among 360,000. AID 624465; in the data active = activation above about 40%; inconclusive = about 15% to 40%; inactive = below about 15%; note: compound concentration not given in the record; the text of the record calls up to 30% inactive
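Agonist mode: compounds alone added to overnight-plated D2 PathHunter cells for 90 min at 37 C, with 57 uM final dopamine (EC100) defining full response. Beta-arrestin recruitment detected by chemiluminescent reagent, read after 1 h at ambient temperature.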
Six1-Eya2 inh – blocks human Six1 binding to Eya2; Q15475+O00167; AlphaScreen GST-Six1/His-Eya2 binding, biochemical; hits give low values; control for the full effect not named in the record; activity change, % (concentration not given with the values); hit rate 0.56% among 360,000; in the data active = activity change below about -65%; inconclusive = about -30% to -65%; inactive = above about -30%; note: % is set by controls: 0 for no effect and ±100 for the full control effect
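Compounds are tested against tagged Six1 and Eya2 proteins bridged by glutathione donor and nickel acceptor beads; after a one-hour incubation at 37 °C without light, AlphaScreen emission is recorded.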
* hit, by the source's call; ? = inconclusive; nt = no result given; [ ] = another dose, or the depositor's remark. The order is random. Share with any hit: about 1%.

SMILES	D2 potentiator	TRPML1 ag	PINK1 modulator	TRPML1 inh	D2 ag	Six1-Eya2 inh
N#Cc1cc(-c2ccccc2)cnc1Sc1ccccc1	-11.3	3.2	2.3%[38.3 µM]	70.5	-1.7	45.6
COc1ccc(CCN=C(N)NS(=O)(=O)c2ccc(OC)cc2)cc1	-33.2	0.4	-1.4%	5.5	-3.0	-7.0
O=C(CN1C(=O)COc2ccccc21)NCCc1ccc(Cl)cc1	nt	0.0	2.2%	-3.5	nt	nt
N#Cc1c(-c2ccccc2)nc(SCc2nc(N)nc(N3CCCCC3)n2)[nH]c1=O	-3.5	0.7	0.1%	29.6	-1.0	4.6
O=C(COC(=O)c1ccc(S(=O)(=O)NCc2ccco2)cc1)NCc1ccc(F)cc1	-0.5	-0.3	1.8%	-13.8	3.7	-0.2
COc1ccccc1NC(=O)c1ccc2[nH]c(C)cc(=O)c2c1	nt	-0.2	-0.4%	0.0	nt	nt
O=C(N/N=C/c1c[nH]c2ccccc12)c1cc(-c2ccccc2)n[nH]1	-21.5	1.1	-1.8%	-2.2	2.8	-3.7
CC/C(C)=N\Nc1nc(-c2cc3cc(OC)ccc3oc2=O)cs1	-13.8	-1.2	?	-7.4	-5.5	17.4
COc1ccccc1C1CC(c2c(-c3ccccc3)c3cc(Cl)ccc3[nH]c2=O)=NN1S(C)(=O)=O (stereo unspecified)	25.3	0.0	-2.1%	-5.4	-3.1	-0.9
Cc1ccc(NC2CC(=O)N(Cc3ccccc3)C2=O)cc1 (stereo unspecified)	-2.1	0.3	-0.8%[38.3 µM]	-1.3	-1.1	-5.2
Cc1ccc(-n2nc(C)c3c(C)cc(=O)n(CC(=O)Nc4ccc(C(C)C)cc4)c32)cc1	nt	0.3	1.2%	-6.9	nt	nt
Cn1c(=O)c2cn(-c3ccc4c(c3)OCCO4)cc2n(C)c1=O	-14.7	1.0	4.3%	-5.3	-1.7	-3.4
CCOc1ccc(S(=O)(=O)N2CCCCC2)cc1NC(=O)CN1C(=O)NC(C)(c2ccccc2)C1=O (stereo unspecified)	-3.2	2.7	0.7%	14.5	-2.1	-1.7
O=C(CSCc1ccc([N+](=O)[O-])cc1)Nc1ccc(S(=O)(=O)N2CCCCCC2)cc1	9.2	8.3	-0.2%	-6.5	1.9	-5.3
COc1cc(C2CC(=O)Nc3c2c(=O)[nH]c2ncnn32)ccc1O (stereo unspecified)	nt	-0.4	-1.0%	-15.0	nt	nt
COc1ccccc1C(=O)N/C(=C/c1ccc2c(c1)OCO2)C(=O)Nc1cccc(C(=O)O)c1	-1.2	0.7	-1.6%	23.0	-0.7	-7.1
CCn1cc(S(=O)(=O)c2ccccc2)c(=O)c2cc(F)c(N3CCN(C)CC3)cc21	-12.4	0.0	0.5%	17.5	-2.5	-11.6
Cc1ccc(C)c(N2CCN(C(=O)c3ccc(Cn4c(=S)[nH]c5ccc(N6CCOCC6)cc5c4=O)cc3)CC2)c1	-4.7	0.2	3.8%	-3.7	-0.7	-4.4
COc1ccccc1CCNC(=O)C(=O)NCC(c1cccnc1)N1CCN(c2ccccc2)CC1 (stereo unspecified)	nt	1.5	-1.2%	-2.8	nt	nt
CCc1ccc(S(=O)(=O)Nc2ccc(-c3ccc(N4CCCC4)nn3)cc2)cc1	nt	-0.8	4.6%	-6.2	nt	nt
CCSCCC(NC1=CC(=O)CC(C)(C)C1)C(=O)O (stereo unspecified)	29.0	-0.6	3.0%	-5.7	2.0	1.2
Cc1c2c(nc3nnnn13)CCCC2	-0.1	0.7	1.8%	-5.4	0.2	3.5
CCC1(C)CC(C(N)=S)CCO1 (stereo unspecified)	-5.3	0.0	-0.1%	0.9	-10.1	-2.2
Cn1cnc2cc(NC(=O)COc3ccccc3)ccc21	-2.5	0.8	0.3%	-7.2	0.1	0.7
CC(CCc1ccccc1)NC(=O)COC(=O)c1cccc2ccccc12 (stereo unspecified)	-7.1	-0.2	0.5%	-11.1	-2.5	9.4

Among those listed so far, these contain an aryl thioether with sulfur outside any ring.
SMILES	D2 potentiator	TRPML1 ag	PINK1 modulator	TRPML1 inh	D2 ag	Six1-Eya2 inh
N#Cc1cc(-c2ccccc2)cnc1Sc1ccccc1	-11.3	3.2	2.3%[38.3 µM]	70.5	-1.7	45.6
N#Cc1c(-c2ccccc2)nc(SCc2nc(N)nc(N3CCCCC3)n2)[nH]c1=O	-3.5	0.7	0.1%	29.6	-1.0	4.6

Carrying on.
SMILES	D2 potentiator	TRPML1 ag	PINK1 modulator	TRPML1 inh	D2 ag	Six1-Eya2 inh
Cc1ccc(NC(=O)Cn2cc(S(=O)(=O)Cc3ccccc3)c3ccccc32)cc1C	nt	2.7	?	-5.9	nt	nt
CC1CCc2c(sc3ncn(CCO)c(=O)c23)C1 (stereo unspecified)	-7.5	0.1	-1.0%	-4.7	-7.7	3.5
Cc1nnc(NC(=O)CSc2nnc(Cc3cccn3C)n2-c2ccccc2)s1	-3.9	0.4	-0.6%	-0.7	2.8	-15.2
CCOc1ccc(CCNC(=O)c2nn(C)c3c2CS(=O)(=O)c2ccccc2-3)cc1OCC	22.1	3.5	-0.4%	0.4	9.2	-4.0
O=C(NCC1CCCO1)c1ccc(S(=O)(=O)N2CCC(c3nc4ccc(Cl)cc4[nH]3)CC2)cc1 (stereo unspecified)	-0.9	0.4	-5.6%[38.3 µM]	-7.1	-0.1	-2.0
Cc1nn(-c2ccccc2)c(C)c1/C=N/n1c(-c2ccccc2Br)n[nH]c1=S	-37.9	2.9	-1.0%	-69.2*	-12.6	-4.5
O=C(N/N=C/c1cn(-c2ccccc2)nc1-c1cc2ccccc2o1)c1c[nH]c2ccccc12	4.7	0.1	15.6%	4.6	-1.7	2.4
CC(C)(C)c1ccc(C(=O)NC(Cc2c[nH]c3ccccc23)C(=O)OCC(=O)c2ccccc2)cc1 (stereo unspecified)	nt	1.2	0.0%	33.0	nt	nt
O=C(Nc1cccc(Cl)c1Cl)c1csc([C@@H]2O[C@H](CO)[C@@H](O)[C@H]2O)n1	1.8	0.0	0.9%	nt	-1.9	-0.6
COc1ccccc1N1CCN(/N=C/c2cc(OC)c(OC(C)=O)c(OC)c2)CC1	6.4	nt	-0.6%	nt	0.2	-3.3
O=C(CSc1ncccn1)Nc1ccc(Cl)c(S(=O)(=O)N2CCOCC2)c1	-3.8	-0.2	0.3%	-11.7	-0.4	-3.6
OCCNCCCCSc1ccc(Cl)cc1	-15.0	0.3	-1.7%	29.2	-3.7	0.7
Cc1ccc(N(CC(=O)NCC2CCCO2)S(=O)(=O)c2ccc(Cl)cc2)cc1C (stereo unspecified)	-1.9	-0.1	-0.6%	-0.9	-5.2	0.3
CCOC(=O)CSc1nnc([C@H](Cc2ccccc2)NC(=O)OC(C)(C)C)o1	29.5	0.5	3.7%[38.3 µM]	-11.0	-0.3	0.0
Cc1ccccc1C1NS(=O)(=O)N=C1N (stereo unspecified)	?	0.3	-0.2%	8.7	8.5	22.9
COC(=O)CCSCC(=O)Nc1ccc(C)c(S(=O)(=O)N2CCCCC2)c1	1.3	1.6	2.8%	4.4	-3.2	-0.2
O=C1CN(C(=O)CNC(=O)c2cccc(Cl)c2)c2ccccc2N1	-8.1	3.8	-1.0%	1.0	1.3	7.6
Cc1cccc(N2C(=O)CC(N3CCN(C(=O)c4ccccc4)CC3)C2=O)c1 (stereo unspecified)	13.3	0.5	1.5%	14.6	5.6	0.6
CN(CC(=O)Nc1cccc(F)c1)C(=O)c1ccc(N2CCCC2)c([N+](=O)[O-])c1	-9.5	-0.3	-0.9%	-2.2	-5.4	-16.6
CCOc1cc(C2C3=C(CCCC3=O)N(CCC(=O)O)C3=C2C(=O)CCC3)ccc1OS(=O)(=O)c1ccc(C)cc1	5.0	4.1	1.7%	21.7	1.5	-14.5
O=C(NCCc1ccccc1)C1CCN(C2CCN(C(=O)CC3=CCCCC3)CC2)CC1	-1.7	-0.5	0.5%	-2.5	-1.7	16.6
Cc1c(C2(c3c(C)n(C)n(-c4ccccc4)c3=O)C(=O)Nc3ccc(F)cc32)c(=O)n(-c2ccccc2)n1C	-0.4	-0.8	8.8%	-20.3	-2.7	9.6
CCc1cc(=S)n2c([nH]c3ccccc32)c1C#N	4.6	0.0	15.8µM*	1.3	2.4	-5.9
O=C(Cn1cnc2ccccc2c1=O)OCCCCN1C(=O)c2ccccc2C1=O	3.8	-0.1	-1.2%	-1.0	1.4	2.0
CC1CCN(CCCNC(=O)CCNC(=O)Cn2cnc3ccccc3c2=O)CC1	-10.4	-1.0	3.2%	-10.6	-6.6	-14.9

Results in Six1-Eya2 inh and PINK1 modulator (3 entries from above):
Structure,Six1-Eya2 inh,PINK1 modulator
COC(=O)CCSCC(=O)Nc1ccc(C)c(S(=O)(=O)N2CCCCC2)c1,-0.2,2.8%
O=C1CN(C(=O)CNC(=O)c2cccc(Cl)c2)c2ccccc2N1,7.6,-1.0%
CC(C)(C)c1ccc(C(=O)NC(Cc2c[nH]c3ccccc23)C(=O)OCC(=O)c2ccccc2)cc1 (stereo unspecified),nt,0.0%

Remaining list, next part.
SMILES	D2 potentiator	TRPML1 ag	PINK1 modulator	TRPML1 inh	D2 ag	Six1-Eya2 inh
O=C(CSc1cccs1)NCCc1ccccc1	-10.9	0.3	-0.4%	-28.6	0.0	9.2
O=C(Cn1cc(SCc2ccc(Cl)cc2)c2ccccc21)N1CCCC1	nt	3.9	0.0%	-4.8	nt	nt
CSc1ccc(CN2CCC(C)(Oc3cccc(F)c3)C2)cc1 (stereo unspecified)	-17.7	-0.7	16.1%	nt	0.5	8.2
Cc1ccc(-n2ncc3c(=O)n(CC(=O)NCc4ccco4)cnc32)cc1	-8.9	-1.0	12.5%	19.0	-0.9	-0.1
N#CC(C(=O)Nc1ccccc1)=C1Nc2ccccc2N1	6.1	1.8	0.2%	-13.7	-3.4	-6.4
CCc1ccc(NC(=O)C(Cc2ccccc2)NS(=O)(=O)c2ccc3c(c2)c(=O)n(C)c(=O)n3C)cc1 (stereo unspecified)	nt	-0.6	1.3%	-6.2	nt	nt
O=C(Cc1ccc([N+](=O)[O-])cc1)N/N=C/c1ccco1	1.4	3.2	-1.6%	-18.0	1.8	-3.6
COc1ccc(C(=O)OCC(=O)Nc2ccc(OC)c(S(=O)(=O)N3CCCCC3)c2)cc1[N+](=O)[O-]	23.8	2.6	0.0%	15.3	2.9	-6.0
CCOC(NC(=O)c1ccccc1)C(NC(=O)c1ccccc1)OCC (stereo unspecified)	-0.4	-0.9	9.5%[38.3 µM]	-5.6	0.9	3.3
O=C(CCC1CCCCC1)Nc1ccc(C(=O)c2ccncc2)cc1	-22.8	-0.3	2.4%	6.8	-0.2	-17.5
COc1ccc(Cl)cc1C1=NOC2(CCC2)C(=O)N1Cc1cccc(C#N)c1	-5.7	-0.8	-0.3%	nt	-2.5	8.8
O=C(Nc1ccc2c(c1)OCO2)C1CCCN1C(=O)NCc1ccccc1 (stereo unspecified)	5.1	-0.5	-3.8%	8.6	-0.2	4.5
Cc1cccc(NC(=O)CSc2nc3c(oc4ccccc43)c(=O)n2C(C)C)c1	nt	0.0	1.2%	13.0	nt	nt
